Source: PubChem BioAssay
HIV Env fusion: HIV envelope-mediated fusion inhibition | HeLa-JRFL Env/CEM21 cell fusion, luciferase | inhibition, % at 12.3 µM | actives 1.1% (n = 360,000) | AID 651610;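 active = mean replicate inhibition score of at least 50 and every replicate individually at or above 50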;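 also: 0% = plate neutral controls and 100% = maraviroc near 300 nM; one replicate is shown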
Rce1 inhib: yeast Ras-converting enzyme inhibition; Q03530; yeast membranes, quenched prenylated peptide cleavage fluorescence; calls only; actives 0.27% (n = 290,000); AID 2563;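 active = fall in fluorescence gain of 50% or more versus controls, with final raw signal at or below 3038400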;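 also: plate controls were neutral control wells for no effect and wells lacking membranes for full effect; tested at 10 µM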
Target sequence (Q03530 whole entry, looked up): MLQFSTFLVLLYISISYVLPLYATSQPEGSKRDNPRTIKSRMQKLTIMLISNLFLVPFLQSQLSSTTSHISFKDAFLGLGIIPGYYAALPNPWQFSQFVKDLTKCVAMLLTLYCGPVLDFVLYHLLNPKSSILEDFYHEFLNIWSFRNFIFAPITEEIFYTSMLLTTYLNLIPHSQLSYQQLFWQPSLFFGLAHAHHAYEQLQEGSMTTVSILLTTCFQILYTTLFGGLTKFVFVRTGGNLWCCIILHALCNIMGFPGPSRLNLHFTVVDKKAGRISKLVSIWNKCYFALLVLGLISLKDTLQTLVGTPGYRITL
MT1-MMP act inh: inhibitors of human MT1-MMP activation; P50281; HT1080 RFP-PRO-GFP cells, GFP/RFP ratio fluorescence, overnight; percent of plate control window, DMSO zero; GFP/RFP ratio change, % at 20 µM; actives 0.061% (n = 360,000); AID 651647;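 active = GFP/RFP ratio change of at least 30% with cell ATP level not reduced by more than half and red fluorescence within 50% of control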; also: strong numbers were not always called active
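Test system: HT1080 cells expressing an RFP-PRO-GFP fluorescent reporter construct / Compound dosing: single-point 20 µM compound, 1% DMSO / Schedule: cells overnight before dosing, compound overnight, 37 °C, 5% CO2 / Evaluation: GFP/RFP fluorescence ratio / Control set: DMSO and RFP-L50D-GFP cell wells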
eIF4H inh: inhibitors of RNA binding by human eIF4H; eIF4H fluorescence polarization binding assay; actives 0.94% (n = 290,000); Q15056; inhibition, % at 35 µM;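 active = 50% or more with normal probe brightness, or confirmed in later tests; about a fifth of its hits are not listed in these tables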;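 also: calls also rest on retests at 20 µM and on dose response follow-up; 0% = protein and probe with vehicle and 100% = probe without protein; strong numbers were not always called active; many hits fall short of the cut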
PABP FP inh: blocks human PABP binding to poly(A) RNA; P11940; fluorescence polarization; inhibition, % at 35 µM; actives 1% (n = 290,000); AID 2014;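 active = 50% or more with normal probe brightness, or confirmed in later tests; about a fifth of its hits are not listed in these tables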;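 also: calls also rest on retests at 20 µM and on dose response follow-up; controls were probe without protein and protein plus probe with vehicle; some compounds called inactive have numbers as strong as hits; many hits fall short of the cut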
Target sequence (P11940 whole entry, looked up): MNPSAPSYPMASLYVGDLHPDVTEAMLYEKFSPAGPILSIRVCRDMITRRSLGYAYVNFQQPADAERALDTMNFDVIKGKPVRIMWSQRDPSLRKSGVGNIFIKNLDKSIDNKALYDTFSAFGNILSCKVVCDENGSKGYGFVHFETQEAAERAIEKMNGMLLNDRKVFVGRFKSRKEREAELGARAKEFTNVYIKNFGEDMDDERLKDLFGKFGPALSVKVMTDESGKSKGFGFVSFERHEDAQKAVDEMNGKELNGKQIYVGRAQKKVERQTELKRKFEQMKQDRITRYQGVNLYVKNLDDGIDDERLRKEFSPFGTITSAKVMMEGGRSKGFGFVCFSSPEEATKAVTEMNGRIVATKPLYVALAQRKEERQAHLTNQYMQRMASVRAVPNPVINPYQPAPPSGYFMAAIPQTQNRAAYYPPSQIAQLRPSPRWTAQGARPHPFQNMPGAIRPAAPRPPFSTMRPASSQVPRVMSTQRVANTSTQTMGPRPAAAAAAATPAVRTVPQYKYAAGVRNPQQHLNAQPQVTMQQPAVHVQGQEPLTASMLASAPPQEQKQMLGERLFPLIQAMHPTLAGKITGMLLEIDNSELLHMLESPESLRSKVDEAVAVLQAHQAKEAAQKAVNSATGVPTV
Yeast UUG start: modulators of start codon recognition fidelity in yeast; S. cerevisiae UUG-firefly luciferase reporter, luminescence/redox ratio; activity score, % at 18.7 µM; actives 0.13% (n = 350,000);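 active = replicate mean at a twofold rise or more, about +100% in these data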;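 also: firefly luciferase made from a UUG start codon reports start codon fidelity; reporter light over untreated wells divided by growth signal over untreated wells; some hits fall short of that in this replicate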
CSC inhib: blocks cancer stem cells | cancer stem cell-like cells viability, luminescence | inhibition, % at 7.5 µM | actives 1.1% (n = 300,000) | AID 2717;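 active = mean at 75% or more and at least half the replicates too; tested in HMLE shEcad cells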;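 also: 0% = median of negative and 100% = median of positive control wells; the first replicate is given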
eIF4H inh retest: second read-out of eIF4H inh, no call of its own (marks repeat the call); inhibition, %; compound at 20 µM; confirmation average;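 mean of two retest wells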
PABP FP inh retest: further read-out of PABP FP inh, marked with its call; inhibition, %; compound at 20 µM; confirmation repeats;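 mean of two retest wells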
MT1-MMP act inh RFP: second read-out of MT1-MMP act inh, no call of its own (marks repeat the call); RFP signal change, %; measured here: RFP expression control read;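 0 = vehicle wells; hits needed this value within 50% of zero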
Numbers without * were called inactive; i = inactive; . = no result given.

SMILES	HIV Env fusion	Rce1 inhib	MT1-MMP act inh	MT1-MMP act inh RFP	eIF4H inh	PABP FP inh	Yeast UUG start	CSC inhib	others
COc1cccc(CN(CC(=O)NCC2CCCO2)C(=O)CCC(=O)Nc2cc(C)on2)c1 (stereo unspecified)	-6	i	1	2	-1	-2	-3	-10
CCCCc1c(C)nc2ccc(Br)cc2c1SCCC#N	.	i	.	.	3	-22	.	.
O=C(Nc1ccn(Cc2ccccc2)n1)c1cccc(F)c1	-67	i	0	-5	-1	-4	-34	.
COc1cc2ccccc2cc1-c1nnc(COc2ccccc2)o1	-14	i	0	4	-2	-3	-9	-11
CCCCN1CCC(=O)NC1=O	6	.	0	2	.	.	-20	.
O=C(NCc1nc2ccccc2[nH]1)C1=C[C@@H](c2ccc(Br)cc2)C[C@@H](OCc2ccc(CO)cc2)O1	-11	i	8	-2	-1	0	-17	15
Cc1sc(C(C2C(=O)CC(C)(C)CC2=O)C2C(=O)CC(C)(C)CC2=O)cc1[N+](=O)[O-]	20	i	7	10	11	18	.	2
O=C1CCC(C(=O)OCC(=O)Nc2ccc(SC(F)F)cc2)=NN1	8	.	-1	1	.	.	0	.
COc1ccccc1Nc1nc(N)nc(CSc2nnc(C)s2)n1	-6	i	-2	4	4	4	-20	-19
Cc1ccc(C(O)c2ncc(-c3ccccc3Cl)[nH]2)cc1 (stereo unspecified)	-23	.	-3	-3	.	.	-28	.
CCOC(=O)C1=CC[C@@H](c2ccco2)N(S(=O)(=O)c2ccc(C)cc2)[C@H]1C(=O)OCC	-3	.	-1	-3	.	.	-11	-3
CN(Cc1ccccc1)S(=O)(=O)c1ccc(Cl)c(C(=O)OCC(=O)NC2CCS(=O)(=O)C2)c1 (stereo unspecified)	3	.	-3	3	.	.	-5	-10
CC(C)(C)OC(=O)N1CCC(C(=O)Nc2cccc(C(=O)NCc3ccccc3)c2)CC1	-65	.	0	-12	.	.	-6	.
CCN(Cc1ccccc1)S(=O)(=O)c1csc(C(N)=O)c1	14	i	1	-1	16	9	-18	12
O=C(O)c1cc(-c2cc3ccccc3o2)nn1-c1ccccc1	16	i	-1	2	10	7	.	-8

Structural class, the compounds so far containing two or more sulfur atoms
SMILES	HIV Env fusion	Rce1 inhib	MT1-MMP act inh	MT1-MMP act inh RFP	eIF4H inh	PABP FP inh	Yeast UUG start	CSC inhib	others
COc1ccccc1Nc1nc(N)nc(CSc2nnc(C)s2)n1	-6	i	-2	4	4	4	-20	-19
CN(Cc1ccccc1)S(=O)(=O)c1ccc(Cl)c(C(=O)OCC(=O)NC2CCS(=O)(=O)C2)c1 (stereo unspecified)	3	.	-3	3	.	.	-5	-10
CCN(Cc1ccccc1)S(=O)(=O)c1csc(C(N)=O)c1	14	i	1	-1	16	9	-18	12

(continued)
SMILES	HIV Env fusion	Rce1 inhib	MT1-MMP act inh	MT1-MMP act inh RFP	eIF4H inh	PABP FP inh	Yeast UUG start	CSC inhib	others
CN1CCCN(C(=O)/C=C/c2ccc(Cl)cc2Cl)CC1	-5	i	4	2	5	6	.	6
O=C(/C=C/c1ccco1)Nc1sc2c(c1C(=O)O)CCC2	.	i	-7	-7	41	36	.	5
CCOC(=O)c1ccc(-c2c(C(=O)OCC)oc3cc(O)c(CC)cc3c2=O)o1	-58	i	5	0	-7	-2	-19	-7
CCOC(=O)c1[nH]c2cc(OC)c(OC)cc2c1NC(=O)c1ccc2c(c1)OCO2	-67	i	4	3	-13	-6	.	-4
COc1ccc(OCC(=O)Nc2ccc3c(c2)n(C)c(=O)n3C)cc1	5	i	2	0	-2	-6	15	7
CC(C)OCCCNc1nc2c(cnn2C)c(=O)[nH]1	-57	.	0	-1	.	.	-21	.
NC(=O)c1nsc(C(=O)N(Cc2ccccc2F)C(C(=O)NCC2CCCO2)c2ccc(F)cc2)c1N (stereo unspecified)	-66	i	2	1	1	3	-8	8
Nc1ccccc1C#CC(=O)c1ccccc1	-105	i	-8	-9	6	5	-25	30
Cc1cc(C(=O)Nc2cc(C(C)(C)C)on2)c(C)o1	-121	i	2	0	-3	-5	3	14
CCN(C(=O)COC(=O)c1nc(Cl)ccc1Cl)c1c(N)n(Cc2ccccc2)c(=O)[nH]c1=O	-3	.	-3	0	.	.	-11	.
O=C(C1CCC(=O)N(C2CCCC2)C1)N1CCN(c2ccccc2Cl)CC1 (stereo unspecified)	1	i	3	-4	1	3	-8	14
Cc1cccc(C(=O)Nc2cc(=O)n(C)c(=O)n2C)c1	-3	i	5	9	-1	-6	7	-6
CCOC(=O)C1CCCN(Cc2cc(=O)oc3cc(C)ccc23)C1 (stereo unspecified)	-19	i	-5	-2	2	-9	.	.
CC(=O)NCCN1C(=O)C2C3c4ccccc4C(c4ccccc43)C2C1=O (stereo unspecified)	-48	i	7	1	4	12	-13	8
COc1cc(NC(=O)c2ccccc2-c2ccccc2)cc(OC)c1	-5	i	-1	0	-6	18	1	.
C[C@@H]1NC(=O)/C(=C\c2ccccc2Cl)NC1=O	2	i	2	3	-1	6	-2	-9
O=C(OCC(=O)N1CCN(C(=O)c2ccco2)CC1)c1ccc(Cl)nc1	.	.	-2	5	.	.	5	-10
O=C(NCCNC(=O)c1ccccc1Br)c1cccnc1	-10	i	-2	1	-10	-5	-15	6
Cc1ccccc1NC(=O)c1ccc(C)c(S(=O)(=O)NCc2cccnc2)c1	1	i	-1	-1	7	-5	-15	-8
O=C(Nc1nnc(-c2ccccc2F)s1)Nc1ccccc1F	-10	.	-2	-3	3	-4	.	-3
Cc1cc(C)c2nc(SCC(=O)Nc3ccc(S(=O)(=O)N4CCCC4)cc3)c(C)cc2c1	3	i	-3	-2	1	-10	-3	6
O=C(CCNS(=O)(=O)c1cccc2nsnc12)NC1CCN(Cc2ccccc2)CC1	-1	i	0	5	-5	17	-8	1
Cc1[nH]n(-c2ncc(-c3ccccc3)s2)c(=O)c1C(c1ccc(Br)cc1)C(C#N)C#N (stereo unspecified)	-3	i	17	6	50	16	-14	.
COc1ccc2[nH]c3nc(SCC(=O)NC4CC4)nnc3c2c1	0	i	5	3	80	3	-16	.	eIF4H inh retest=-11;PABP FP inh retest=28
Cc1ccc(OCC(=O)N2CCN(C(=O)c3ccncc3)CC2)cc1	-3	i	5	-1	0	0	.	-8
c1cc2c(cn1)cnc1cscc12	16	.	-9	-5	6	-2	3	-4
CC1=C(C)CC2C(C1)C(=O)c1ccc(Br)cc1S2(=O)=O (stereo unspecified)	1	.	3	5	.	.	-23	-6
O=C(NC1CCCCCC1)c1cc(S(=O)(=O)N2CCC3(CC2)OCCO3)ccc1F	.	i	4	-10	1	10	-1	-7
CC(=O)c1ccc(-n2nnnc2SCC(=O)NC2CCCCC2)cc1	-10	i	2	-1	-6	6	-2	-14
COCC(C)n1c(C)cc(C(=O)COC(=O)CCc2nc3ccccc3c(=O)[nH]2)c1C (stereo unspecified)	24	i	5	2	8	1	6	-9
c1ccc(NN(Cc2ccccn2)c2ccccc2)cc1	4	.	-1	1	.	.	-27	.
CCOc1ccc(/C=C/C(=O)OCC(=O)NCCc2ccc(OCC)c(OCC)c2)cc1OC	-19	i	-2	1	.	.	0	-19
COc1ccc(CN2CCC2(C)C(=O)NCc2ccc3c(c2)OCO3)c2ccccc12 (stereo unspecified)	20	.	-2	-6	.	.	-5	.
CC1(C(=O)NS(=O)(=O)c2ccccc2)CCN1C(=O)c1ccccc1CCc1ccccc1 (stereo unspecified)	-4	.	1	8	.	.	-31	.
Cc1cccc(NC(=O)CSCC(=O)Nc2cc(Cl)ccc2N2CCOCC2)c1	72*	i	-1	-4	.	.	-13	-1
COc1ccc(C(C)=O)cc1COC(=O)c1ccc(S(=O)(=O)N2CCOCC2)cc1	.	i	3	1	0	2	3	-6
CCn1nnc(-c2ccccc2NC(=O)C(F)(F)F)n1	.	i	1	6	0	34	-44	12
O=C1c2ccccc2NC(c2ccc(-c3cccc(Cl)c3)o2)N1O (stereo unspecified)	.	i	-5	-5	1	3	-22	85*
CC1Cc2cc(S(=O)(=O)NCc3ccccc3)ccc2N1C(=O)C1CCC1 (stereo unspecified)	0	i	2	-23	-10	2	15	5
Brc1cccc(-c2nc3c4ccccc4ccn3c2Cc2ccsc2)c1	-62	.	1	0	.	.	0	.
O=C(CSc1nnnn1C1CCCCC1)NNC(=O)c1ccco1	23	i	0	4	0	-4	.	1
CCOC(=O)C[C@H]1c2cc(F)ccc2S(=O)(=O)N1C1CCCCC1	10	i	9	-2	.	.	-19	-8
CCOC(=O)Nc1ccc([N+](=O)[O-])cc1C	.	i	6	9	6	13	-11	.
O=Cc1c(Sc2ccccc2)nc2ccccn2c1=O	.	i	-8	-11	4	-2	59	7
Cc1ccsc1-c1nc(CN2C[C@@H](C)O[C@@H](C)C2)c(C)o1	9	i	-1	-1	15	9	.	-7
COc1ccc(CCN(C)C(=O)N2CCOCC2)cc1OC	-21	i	1	3	-4	-2	-20	-5
COc1ccc(C2=NS(=O)(=O)N(C)C(C(=O)N3CCN(C)CC3)=C2)cc1	-28	i	1	3	-5	-2	-4	-3
CC1Cc2ccccc2N1CC(=O)NC(=O)NC1CCCC1 (stereo unspecified)	7	i	1	-3	-5	-12	.	-7
Cc1cc(C)c2c(=O)[nH]c(SCC(=O)NCCc3ccccc3)nc2n1	.	i	2	4	4	8	-16	9
COc1ccc(CC(=O)NCCC2=CCCCC2)cc1	5	i	1	2	-11	-3	-10	-8
O=C(CNC(=O)c1ccc(Cl)cc1)OCC(=O)N1CCCC1	-10	i	-2	2	11	15	.	-7
Cc1ccc(Cl)cc1NC(=O)COC(=O)Cn1cnc2c1c(=O)n(C)c(=O)n2C	15	i	6	0	3	-14	-16	.
CCOC(=O)C1=NN(c2ccc(C)cc2)CC1C(=O)OC (stereo unspecified)	.	i	1	2	0	0	-2	-4
CC1(C)CC(=O)C(/C=N/c2ccccn2)=C(O)C1	.	i	-1	4	-2	0	4	5
Cn1c(N)c(C(=O)Nc2c(Cl)cccc2Cl)sc1=S	-11	i	4	-1	-11	6	.	-8
CCCC(=O)NC(=S)Nc1cccc(NC(=O)c2ccccc2)c1	12	i	1	3	-2	6	.	-8
COc1ccccc1N1CC(C(=O)Nc2nc(C)cs2)CC1=O (stereo unspecified)	27	.	-1	1	.	.	-11	.
Cc1c(Nc2c3ccccc3nc3ccccc23)c(=O)n(-c2ccccc2)n1C	-11	i	5	-5	-5	-22	.	-2
COc1ccc(N(C)C(=O)Nc2ccc3nsnc3c2)cc1	6	.	-3	-1	11	8	-4	.
CCn1c(SCc2ccc(F)cc2)nc2c(c1=O)SCC2	14	i	-2	-7	4	3	.	0

More entries follow.
SMILES	HIV Env fusion	Rce1 inhib	MT1-MMP act inh	MT1-MMP act inh RFP	eIF4H inh	PABP FP inh	Yeast UUG start	CSC inhib	others
O=C(NCCCCCCCCCNC(=O)C(F)(F)F)C(F)(F)F	17	i	-1	-2	6	-2	-22	-11
Cc1oc(-c2ccccc2Cl)nc1CS(=O)CC(=O)N1CCN(c2ccccc2)CC1 (stereo unspecified)	4	i	-3	-3	-5	9	.	-8
O=C(CCSCCC(=O)Nc1c(F)c(F)c(F)c(F)c1F)Nc1c(F)c(F)c(F)c(F)c1F	14	i	1	-1	0	-11	.	10
CCCc1cc(C(=O)Nc2ccc(C)cc2)no1	-66	i	-2	0	-18	0	-8	9
Cc1cccc(NC(=O)CCNS(=O)(=O)c2ccc3[nH]c(=O)oc3c2)c1	-11	i	2	4	4	0	-16	-7
Cc1ccc(Cc2c(C)nc3nc(SCC(=O)NCCCN4CCCCCC4)nn3c2C)cc1	20	.	.	.	44	41	.	11
CCn1nc(C(=O)NNC(=O)c2ccccc2OCc2c(C)noc2C)c2ccccc2c1=O	-16	.	-1	3	.	.	-32	.

No enrichment for hits; about 2.9% have a hit in one of these screens.
